From PubChem
Beta cell apopt: inhibitors of cytokine-induced beta cell apoptosis, primary screen, luminescence. INS-1E cytokine-induced death, ATP luminescence, 48 h; percent of positive-control rescue, neutral wells zero. protection from apoptosis, % (no concentration beside the values). 0.8% of 300,000 active. AID 435005, 2010;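 active = all replicates at 75% or more, or half of them and the mean; inconclusive = half reach 75% but not the mean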;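 also: 0% = cytokine-treated negative control wells and 100% = positive control rescue; higher means more ATP so stronger rescue from cytokine killing; wells of about 40 µL received 100 nL stock; the first replicate is given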
Vif TR-FRET: inhibitors of Vif binding to APOBEC3G peptide, primary screen, biochemical, TR-FRET, GST-Vif 1-94, biotin-A3G peptide, dose response retest (AID 1117319); inhibition, %; hits with a dose series show IC50 in µM; 0.57% of 260,000 active; Virion infectivity factor (Human immunodeficiency virus type 1 group M subtype B (isolate …; TR-FRET GST-Vif / biotin-A3G peptide binding; higher % means a stronger effect; test concentration not given here; strong numbers were not always called active;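 active = above the screen mean plus three standard deviations and confirmed in dose response; inconclusive = results disagree or hit not tested in dose response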;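 also: Vif residues 1-94 fused to GST binding biotinylated APOBEC3G peptide 110-148; 0% = full assay without inhibitor and 100% = GST in place of GST-Vif; retest series ran down from 100 µM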
RanGTP-Imp inh: inhibitors of RanGTP-importin-beta interaction, primary screen, biochemical, FRET, CFP-Ran, YFP-importin-beta, homogeneous. inhibition, % (test concentration not listed). Ran GTPase (GTP-bound) - importin-beta complex. cell-free CFP-Ran/YFP-importin-beta FRET ratio. 1.1% of 300,000 active. AID 2216, 2009;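 active = most replicates above 15%; inconclusive = exactly half above 15%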;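 also: 0% = DMSO wells and 100% = Ran loaded with GDP instead of GTP; wells of about 40 µL received 100 nL stock; the first replicate is given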
Bfl-1 A1 inh: caspase 3/7 activation in MEF A1-2A-BIM cells, primary screen, A1 inhibitor project, cell-based, luminescence, HTS | Caspase-Glo 3/7 luminescence, 3 h; percent of clofoctol response, vehicle zero | 0.066% of 330,000 active | caspase activation, % (concentration not given with the values);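 active = over half of replicate activation scores above 10%, or exactly half above 10 with the replicate mean above 10; inconclusive = replicate mean below 10 yet half the replicates above 10; inactive = over half of replicates below 10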;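 also: wells of about 30 µL received 50 nL stock; many hits fall short of the cut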
Ecoli rRNA inh: reduced GFP signal of wild-type E. coli, primary screen, bacterial rRNA inhibitor project, GFP/RFP fluorescence, OD600, single point; E. coli WT GFP vs humanized-ribosome RFP mutants, 24 h; stronger effect = lower value; DMSO median 0, no signal -100; GFP signal change (wild-type ribosome), % (concentration not given with the values); 1.6% of 350,000 active; AID 720706, 2013;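 active = significant combined selectivity score with lowered wild-type GFP, culture density cut under 30%, mutant RFP and density less affected; inactive = any of these conditions unmet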; also: one replicate is shown; some compounds called inactive have numbers as strong as hits
Calb FLC: C. albicans growth inhibition with fluconazole, primary screen, CaCi-2 strain, Alamar Blue fluorescence; C. albicans CaCi-2 (fluconazole-resistant clinical isolate) + fluconazole, 48 h; growth inhibition, % (test concentration not listed); 0.57% of 300,000 active; AID 1979, 2009;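 active = most replicates above 75%; inconclusive = exactly half above 75%; inactive = most below 75%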;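 also: all wells also contain fluconazole at 8 µg/ml as a sub-toxic cotreatment; 0% = median of DMSO wells and 100% = median of geldanamycin control wells; wells of about 8 µL received 7.5 nL stock; the first replicate is given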
T cruzi inh: inhibitors of intracellular T. cruzi growth, primary screen, luminescence, NIH3T3 host cells; T. cruzi beta-gal in NIH3T3, 90 h; inhibition, % (concentration not given with the values); 1.4% of 300,000 active;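 active = mean inhibition across valid replicates above about 55%, limit read from the data; inconclusive = mean below that limit but half or more replicates reach it; inactive = mean below it, under half of replicates reach it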;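 also: signal also drops with host cell toxicity which is not excluded here; 0% = plate median of DMSO wells and 100% = zero luminescence signal; higher percent means less beta-gal luminescence so fewer parasites; stock transfer was 50 nL into about 50 µL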
AF4-AF9 inh: inhibitors of AF4 peptide binding to AF9, primary screen, biochemical, AlphaScreen, biotin-AF4 peptide, FLAG-AF9, single point; inhibition, % at 10 µM; 0.47% of 350,000 active;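 active = every replicate reaching a set inhibition limit, whatever the replicate mean, cut at about 25% in these data; inconclusive = mean inhibition reaches that limit but some replicates miss it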;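 also: 0% = plate neutral control median and 100% = total signal loss; the record names both 10 and 1 µM as test concentration; the first replicate is given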
Target sequence (P42568 whole entry, looked up): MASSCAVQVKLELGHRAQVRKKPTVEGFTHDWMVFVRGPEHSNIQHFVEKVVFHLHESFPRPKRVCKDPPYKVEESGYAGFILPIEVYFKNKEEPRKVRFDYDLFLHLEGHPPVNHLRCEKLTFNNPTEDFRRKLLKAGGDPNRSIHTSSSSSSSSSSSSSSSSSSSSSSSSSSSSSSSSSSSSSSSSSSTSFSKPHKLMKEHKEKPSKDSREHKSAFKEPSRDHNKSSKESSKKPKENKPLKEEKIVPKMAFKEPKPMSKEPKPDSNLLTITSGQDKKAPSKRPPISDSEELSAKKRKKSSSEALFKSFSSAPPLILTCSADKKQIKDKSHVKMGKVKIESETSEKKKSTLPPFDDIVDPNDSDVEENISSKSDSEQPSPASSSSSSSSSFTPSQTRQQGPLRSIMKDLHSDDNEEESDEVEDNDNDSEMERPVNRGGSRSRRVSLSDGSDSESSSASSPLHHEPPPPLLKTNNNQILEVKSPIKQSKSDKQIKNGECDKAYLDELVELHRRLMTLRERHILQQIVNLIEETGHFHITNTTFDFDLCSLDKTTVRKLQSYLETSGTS
Ecoli rRNA inh OD600: second read-out of Ecoli rRNA inh, no call of its own (marks repeat the call); OD600 change, %; measured here: OD600 growth;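 optical density of the mix in the first replicate; 0 = DMSO median and -100 = no signal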
Ecoli rRNA inh RFP: second read-out of Ecoli rRNA inh, no call of its own (marks repeat the call); RFP signal change, %; measured here: RFP humanized mutant strains;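 first replicate; 0 = DMSO median and -100 = no signal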
Starred values were filed as active, the others as inactive; u = inconclusive; x = not tested or not shown. The list is partial. The share of hits here may be higher or lower than overall.

cpd | SMILES | Beta cell apopt | Vif TR-FRET | RanGTP-Imp inh | Bfl-1 A1 inh | Ecoli rRNA inh | Ecoli rRNA inh OD600 | Ecoli rRNA inh RFP | Calb FLC | T cruzi inh | AF4-AF9 inh
1 | CCN(CC)CCNS(=O)(=O)c1ccc(OC)c(Br)c1 | -9 | 1% | 0.8 | 0.0 | x | x | x | -2 | 7 | x
2 | COc1cc(N(C)C)c([N+](=O)[O-])cc1C(=O)N1CCOCC1 | -7 | x | 6.4 | 0.0 | x | x | x | 5 | -9 | 1.5
3 | COc1ccc(C(CNC(=O)c2cc3ccccc3o2)N2CCCC2)cc1 (stereo unspecified) | 1 | -5% | x | -0.3 | 7 | -4 | 0.1 | x | x | 2.7
4 | CCOC(=O)N1CCN(c2ccc(S(=O)(=O)N3CCOCC3)cc2[N+](=O)[O-])CC1 | 6 | 3% | 0.8 | -1.0 | -3 | 3 | -2.3 | 0 | 50 | 0.6
5 | CCOc1ccc(S(=O)(=O)N2CCC(C(=O)N3CCOCC3)CC2)cc1Cl | x | -5% | 4.3 | -0.3 | 6 | 3 | -4.0 | 4 | 6 | 0.5
6 | Cc1nc(-c2ccc([N+](=O)[O-])cc2)sc1C(=O)O | -1 | 3% | 1.0 | -7.8 | -11 | -1 | -2.3 | -7 | -7 | -0.8
7 | Nc1ccccc1-c1nnc(-c2ccccc2N)n1N | 0 | -3% | -2.3 | -8.1 | 1 | 3 | -0.8 | -8 | 2 | -2.2
8 | CSC1=NCCN1S(=O)(=O)c1ccc(Cl)cc1 | -1 | -7% | -3.1 | 0.6 | 11 | 8 | -2.0 | -13 | -31 | -1.5
9 | CC1CCCC(C)N1C(=O)c1ccc2c(c1)S(=O)(=O)c1ccccc1C2=O (stereo unspecified) | 0 | -6% | 5.1 | 1.5 | -6 | -21 | 2.7 | 9 | 27 | 6.4
10 | Cc1cc(C(=O)COc2ccccc2C(N)=O)c(C)n1C | -3 | 14% | 1.5 | 0.7 | 20 | -9 | -2.1 | -5 | -3 | -0.3
11 | CCCCS(=O)(=O)/C=C\C=C/S(=O)(=O)CCCC | 85* | 21% | -5.7 | 2.6 | x | x | x | 1 | 23 | x
12 | CCN(CC)C(=O)Cn1cc(S(=O)(=O)CC(=O)Nc2ccc(F)cc2F)c2ccccc21 | 6 | 3% | 1.1 | -1.3 | 12 | 8 | 3.9 | 8 | 7 | -3.8
13 | Cc1cccc(N2CCN(Cc3ccc([N+](=O)[O-])o3)CC2)c1C | -5 | 8% | -0.4 | 0.3 | -4 | -1 | 13 | -8 | 58* | 11
14 | Cc1ccc(S(=O)(=O)N2CCC(C(=O)NCCCN3CCOCC3)CC2)cc1C | 0 | -13% | -4.7 | -0.8 | 5 | 6 | 2.6 | 5 | -3 | 0.0
15 | COCCCNCC(O)COc1cccc2[nH]c(C)cc12 (stereo unspecified) | 0 | 0% | -3.8 | 0.0 | 18 | 16 | 2.1 | -4 | -7 | 52*
16 | COc1ccc(N2CCN(S(=O)(=O)CC34CCC(CC3=O)C4(C)C)CC2)cc1 (stereo unspecified) | -1 | x | 0.3 | 0.4 | 1 | 1 | 1.0 | -6 | 5 | 0.2
17 | CS(=O)(=O)Nc1ccccc1C(=O)NC1CC2CCC1C2 (stereo unspecified) | -2 | -1% | 1.5 | -0.9 | x | x | x | 45 | 0 | x
18 | CC(=O)Nc1ccc(/C=C/C(=O)c2ccccc2)cc1 | -6 | -9% | -0.3 | -0.6 | x | x | x | -3 | -10 | x
19 | O=S(=O)(c1ccc(S(=O)(=O)N2CCOCC2)cc1)N1CCCC1 | -4 | 7% | 1.7 | 1.2 | 16 | 13 | 0.4 | 9 | -13 | -2.4
20 | COc1ccc(NC(=O)CSc2nncs2)cc1S(=O)(=O)N1CCCCC1 | -5 | x | x | -0.4 | -1 | -4 | -0.7 | x | x | -2.0
21 | COc1ccc(S(=O)(=O)Nc2c(NC3CCCCC3)c3ccccc3oc2=O)cc1 | -3 | x | 0.6 | 0.1 | -38 | -37 | 2.2 | -2 | -10 | 5.5
22 | CCOC(=O)c1c(C=O)c(C)n(Cc2ccc(C)cc2)c1C | -7 | -4% | -1.4 | 1.3 | x | x | x | -1 | 2 | x
23 | COC(=O)c1ccc(COC(=O)[C@@H]2CC(O)CN2S(=O)(=O)c2ccccc2[N+](=O)[O-])cc1 (stereo partly specified) | 1 | x | 5.2 | -0.7 | -17* | 2.5* | 2.6* | -2 | -12 | -0.9
24 | O=S(=O)(Nc1ncccc1O)c1ccc(Cl)cc1 | -7 | 18% | 3.7 | 1.1 | 3 | 4 | -2.5 | 3 | -2 | x
25 | CC(OC(=O)CCCN=C1NS(=O)(=O)c2ccccc21)C(=O)N(C)c1ccccc1 (stereo unspecified) | -4 | -5% | 1.9 | -0.6 | 1 | 11 | 1.6 | 0 | -5 | -1.2
26 | Cc1ccccc1OCCSc1nc2ccccc2n1CCC(=O)O | x | x | 6.0 | -0.8 | -24 | -12 | -3.2 | 2 | 2 | -4.1
27 | O=C(COC(=O)C1CCC1)NC(=O)c1ccccc1 | 4 | -1% | 1.6 | 0.6 | 4 | 3 | -2.1 | 7 | -16 | -0.7
28 | COC(=O)c1ccc(NC(=S)N2CCN(Cc3cccc(C)c3)CC2)cc1 | -6 | -10% | -2.4 | 0.7 | x | x | x | -3 | -1 | x
29 | Cc1ccc(-c2nnn(CC(=O)N(CCO)C(C(=O)NC3CCCC3)c3ccc(F)cc3)n2)o1 (stereo unspecified) | x | 4% | -2.1 | 0.4 | 8 | 1 | -1.3 | 1 | -14 | -2.0
30 | CC(C)OC(=O)Cn1c(-c2ccccc2)c(-c2ccccc2)nnc1=O | -2 | x | -1.6 | 0.0 | 9 | 7 | 0.8 | 18 | -3 | 2.5

The listing continues:
cpd | SMILES | Beta cell apopt | Vif TR-FRET | RanGTP-Imp inh | Bfl-1 A1 inh | Ecoli rRNA inh | Ecoli rRNA inh OD600 | Ecoli rRNA inh RFP | Calb FLC | T cruzi inh | AF4-AF9 inh
31 | O=S(=O)(Nc1nccs1)c1cc(Cl)ccc1Cl | -5 | 16% | -2.4 | 0.8 | x | x | x | -4 | 4 | x
32 | Nc1nc2ccccc2n1CCOc1ccc(F)cc1 | x | -9% | u | 1.3 | -21* | -9.6* | 9.1* | -12 | 19 | 4.6
33 | CC(NC(=O)CSc1ncccn1)c1ccc(Cl)cc1Cl (stereo unspecified) | -4 | -5% | 3.5 | 0.2 | -11 | -1 | -7.7 | -24 | -2 | -3.2
34 | CC(=O)C1=C(C)NC(SCC(=O)c2cc(Cl)ccc2Cl)=C(C#N)C1c1ccco1 (stereo unspecified) | x | 11% | -47 | -1.1 | -7 | -9 | 7.7 | -7 | 17 | -30
35 | O=C(N/N=C/c1cc2cc3c(cc2nc1Cl)OCCO3)c1ccccc1O | 4 | 27% | 0.8 | -1.0 | x | x | x | -13 | -8 | x
36 | O=C(NNC(=O)C1CCN(Cc2ccccc2)CC1)c1cccc(Cl)c1 | -8 | -5% | 0.7 | -0.2 | x | x | x | -9 | 30 | x
37 | CC(=O)Nc1cc(NC(C)=O)cc(-c2nc3ccccc3[nH]2)c1 | x | 8% | -3.7 | 1.4 | x | x | x | 3 | -10 | -9.6
38 | CCOC(=O)CSc1ncc(OC)c(Sc2ccc(OC)cc2)n1 | -7 | -8% | 8.8 | 0.6 | x | x | x | 10 | -14 | x
39 | CN(C)S(=O)(=O)c1cccc(C(=O)Nc2ccccc2N2CCCCC2)c1 | 19 | 10% | -2.3 | 2.0 | -18 | -25 | 0.2 | 21 | 14 | 1.1
40 | Cc1c(Cl)c([N+](=O)[O-])nn1CCCC(=O)NC(C)c1ccccc1 (stereo unspecified) | 3 | 5% | 2.8 | -0.1 | x | x | x | 50 | 7 | x
41 | CC(=O)N1CC(C)c2scc(C)[n+]2-c2ccccc21 (stereo unspecified) | -7 | 25% | -2.4 | -0.3 | x | x | x | 5 | 0 | x
42 | Cc1ccccc1OCC(=O)NC(=S)Nc1cccc2cc(O)ccc12 | -3 | x | 0.1 | 1.2 | 0 | 5 | -0.5 | 2 | -6 | -1.2
43 | Cc1cc(=O)[nH]c(N/N=C/c2ccc(OC(=O)c3cccnc3)cc2)n1 | -8 | 5% | -2.5 | -0.3 | 6 | 4 | -3.4 | -6 | -6 | x
44 | CCOC(=O)c1c(N)sc2c(NC(C)=O)cccc12 | 2 | -4% | 7.5 | 0.7 | x | x | x | 4 | 1 | x
45 | COC(=O)[C@@H]1C[C@H]2CC[C@H](O)C[C@H]2N1Cc1ccc(C)s1 | 0 | 14% | 0.3 | -0.1 | 8 | 2 | -7.1 | -6 | -16 | -1.7
46 | CN1C2CCC1/C(=C\c1ccccc1Cl)C(=O)/C2=C\c1ccccc1Cl | x | -6% | -1.0 | x | x | x | x | 0 | 11 | x
47 | Nn1cnnc1SCC(=O)Nc1ccc2c(c1)OCO2 | -2 | 11% | u | -0.4 | x | x | x | -5 | -14 | x
48 | COc1ccc(-n2c(C)nc(N)c2C(=O)c2ccccc2)cc1 | -3 | 2% | 0.8 | 0.4 | x | x | x | -38 | 5 | 1.7
49 | Cc1occc1C(=O)N1CCN(S(C)(=O)=O)CC1 | -6 | 28% | 0.8 | 0.0 | x | x | x | -1 | x | x
50 | COc1cc(NC(=O)CSc2ncnc3sc4c(c23)CCC(C)C4)c(C(=O)O)cc1OC (stereo unspecified) | -10 | x | -2.0 | 0.3 | -5 | -7 | -1.4 | -1 | 2 | 0.7
51 | Nc1cccnc1Sc1ccc(Cl)cc1 | -32 | 9% | -1.8 | -0.2 | x | x | x | -11 | -9 | x
52 | CCc1ccc(Nc2cnn(-c3nc4ccccc4s3)c(=O)c2Cl)cc1 | 4 | x | -0.7 | -0.3 | -7 | 11 | 5.3 | 52 | 11 | 2.0
53 | CCn1nc(C)c(/C=N\NC(=O)c2ccc3c(c2)OCO3)c1C | 0 | 13% | 1.3 | 1.7 | x | x | x | -2 | 1 | x
54 | Cn1c(=O)[nH]c(=O)c2c1nc(N)n2Cc1ccccc1 | -5 | -7% | 3.9 | 0.7 | 5 | 2 | -10 | x | 0 | -1.1
55 | Cc1ccc(NC(=O)CN2CCc3cc4c(cc3C2C)OCCCO4)cc1 (stereo unspecified) | -10 | x | 4.8 | 0.6 | -23 | -21 | -5.1 | 2 | 4 | -0.2
56 | CCSC1=C(C#N)C(c2ccccc2Cl)CC(=O)N1 (stereo unspecified) | -5 | 0% | -1.7 | -0.9 | x | x | x | 6 | 12 | x
